Assay outcomes: PubChem BioAssay, several laboratories
GALR2 agonist: GALR2 (human) receptor agonism; activation, %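 (tested at 5 µM)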; O43603; 0.48% of 140,000 active; GALR2-expressing cells, agonist activation read-out;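 active means above mean plus 3 SD of all compounds, about 5% in these data, not always enough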;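 further: 0% = vehicle buffer wells and 100% = reference agonist at full effect; tested in CHO reporter cells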
Target sequence (O43603 whole entry, looked up): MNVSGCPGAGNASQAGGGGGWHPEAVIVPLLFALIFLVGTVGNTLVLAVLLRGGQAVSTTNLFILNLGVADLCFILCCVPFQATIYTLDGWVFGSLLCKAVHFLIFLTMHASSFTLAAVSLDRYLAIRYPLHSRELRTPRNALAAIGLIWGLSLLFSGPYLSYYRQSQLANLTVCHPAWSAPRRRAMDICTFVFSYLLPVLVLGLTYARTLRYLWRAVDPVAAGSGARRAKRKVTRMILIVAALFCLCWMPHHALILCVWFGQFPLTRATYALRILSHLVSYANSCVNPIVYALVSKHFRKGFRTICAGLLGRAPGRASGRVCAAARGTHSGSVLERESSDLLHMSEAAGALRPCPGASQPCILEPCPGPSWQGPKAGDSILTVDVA
PKD1 inh: PKD1 (human) kinase inhibition | Q15139 | PKD1 kinase fluorescence polarization assay | inhibition, %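 (about 10 µM by stock and volumes)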 | 0.056% of 200,000 active;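 active means inhibition of 50% or more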;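 further: controls were vehicle for no effect and a reference inhibitor for full effect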
Insulin prom inh: TRM-6 insulin promoter activity inhibition. TRM-6 cells (human fetal islet line), insulin promoter-eGFP reporter, imaging; reporter expression induced with tamoxifen. 0.9% of 130,000 active. inhibition, % at 2 µM;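 active means inhibition above the mean plus 3 SD, with well images judged a real hit on visual review, cut at about 60% in these data, passing the limit was not always enough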
HSV augment: increases HSV replication in cells | HSV replication augmentation in cells, fold increase | maximum fold increase | AID 1956 | 0.005% of 220,000 active;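 active means peak rise of 1.5-fold or more in the series; tested in PC3 cells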;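 further: first round at 10 µM; read as green reporter fluorescence; hits show the peak of a series up to 25 µM; 1 = signal of infected wells without compound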
RGS16-Gao HTS: RGS16-Galphao interaction regulator (human); O15492+P09471; bead-based flow cytometry RGS16-Galphao binding, fluorescence; actives lie on both sides; binding response (% of control), % at 10 µM; 0.38% of 220,000 active; AID 1441;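 active means below 25% or above 175%, edge rows of some plates excepted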;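 further: Galphao activated by GDP with aluminum fluoride before binding; 100% = wells without compound and 0% = beads without RGS; some results beyond the cut were filed as inactive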
Target sequence (O15492 whole entry, looked up): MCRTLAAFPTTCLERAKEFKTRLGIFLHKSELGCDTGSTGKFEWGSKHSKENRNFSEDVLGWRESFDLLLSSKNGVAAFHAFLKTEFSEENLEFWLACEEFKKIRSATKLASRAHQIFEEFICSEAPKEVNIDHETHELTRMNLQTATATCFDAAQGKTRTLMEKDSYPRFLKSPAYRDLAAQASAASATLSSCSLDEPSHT
Target sequence (P09471 whole entry, looked up): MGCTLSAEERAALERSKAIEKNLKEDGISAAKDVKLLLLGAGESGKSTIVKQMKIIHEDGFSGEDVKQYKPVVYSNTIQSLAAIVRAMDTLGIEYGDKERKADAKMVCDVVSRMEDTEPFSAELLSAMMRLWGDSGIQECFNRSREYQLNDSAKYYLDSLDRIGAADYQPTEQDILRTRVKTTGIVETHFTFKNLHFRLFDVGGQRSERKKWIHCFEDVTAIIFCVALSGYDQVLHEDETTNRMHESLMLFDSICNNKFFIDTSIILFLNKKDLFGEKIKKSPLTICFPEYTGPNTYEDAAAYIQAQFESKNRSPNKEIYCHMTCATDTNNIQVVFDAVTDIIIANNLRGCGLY
Insulin prom inh cell count: also measured in Insulin prom inh; calls as there; normalized cell count, %; measured here: cell count, toxicity; reference of the scale not given here;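 cells exposed to compound for 48 h; stained nuclei by imaging scaled within each plate; lower means fewer cells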
HSV augment primary fold: also measured in HSV augment; calls as there; fold increase; compound at 10 µM; measured here: primary screen fold increase 10 uM; tested in PC3 cells;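 GFP signal in the first replicate; 1 = infected wells without compound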
* hit, by the source's call; i = inactive; / = not tested or not shown. An unsorted share of the library. Share with any hit: about 1.3%.

Under each structure – Insulin prom inh	RGS16-Gao HTS	GALR2 agonist	Insulin prom inh cell count	HSV augment primary fold	HSV augment	PKD1 inh
O=C(COC(=O)C1CCN(/C=C/C(=O)C(F)(F)F)CC1)Nc1cccc(F)c1
→ 23	86	-0.5	84	0.98	i	-1
Cc1cc(C)nc(NC(=O)C(c2ccccc2)c2ccccc2)c1
→ 36	113	-1.0	39	1	i	-4
CCOC(=O)C1=C(C)OC(N)=C(C#N)C1c1cc2c(cc1[N+](=O)[O-])OCO2 (configuration not stated)
→ -100	93	/	119	1	i	9
O=C(NCc1ccccn1)C(=O)Nc1nc(-c2ccccc2)cs1
→ /	110	/	/	0.99	i	/
Cc1cc2c(cc1C)N(Cc1ccccc1)C1=NCCCN12
→ /	101	/	/	0.74	i	/
CCC(C)n1c(SCC(=O)NCCc2ccc(S(N)(=O)=O)cc2)nc2ccsc2c1=O (configuration not stated)
→ 43	116	-1.3	117	1	i	-2
Cc1nn(C(=O)Cn2cc([N+](=O)[O-])cn2)c(C)c1Cl
→ /	107	/	/	1	i	-3
OCCNc1ncnc2c1c(-c1ccccc1)c(-c1ccccc1)n2Cc1ccco1
→ 28	99	0.1	123	0.89	i	4
Cc1cccc(N(C)C(=O)C2CCCN2S(=O)(=O)c2cccc3nsnc23)c1 (configuration not stated)
→ /	104	/	/	1.1	i	/
CCOc1ccc(N/C(=N/c2nc(C)cc(C)n2)NC(=O)CC)cc1
→ /	100	/	/	0.95	i	/
CCCCN(C)CCNC(=O)c1nn(-c2ccc(OC)cc2)c(=O)c2c1c1ccccc1n2C
→ /	98	/	/	0.81	i	2
CSc1nnc(-c2cccs2)n1C
→ /	112	/	/	1	i	-4
CSc1nsc(SCC(=O)Nc2nc3ccc(C)cc3s2)n1
→ /	98	-1.3	/	0.85	i	-8
Cc1cccnc1Nc1ncnc(N)c1[N+](=O)[O-]
→ /	95	/	/	0.92	i	-3
Cc1cccc(N2CCN(C(=O)c3ccc4c(c3)OCCO4)CC2)c1C
→ 64	113	/	101	0.88	i	-3
CCCCCCOc1ccc(NC(=O)CC2C(=O)N(CC)C(=S)N2Cc2ccco2)cc1 (configuration not stated)
→ 12	100	1.4	67	0.9	i	10
Cc1cnc(NC(=O)Nc2ccc(Cl)cc2)s1
→ /	110	/	/	0.69	i	-2
CC1=C(C)C(C)=C(C#N)C(=C(C#N)C#N)N1
→ /	93	/	/	0.99	i	/
COc1cc(/C=N/NC(=O)C(=O)/C=C2\NC(C)(C)Cc3ccccc32)ccc1O
→ /	117	/	/	0.92	i	/
CCCCNC(=O)CSc1nc2ccccc2c(=O)n1C1CCCC1
→ /	99	-1.7	/	0.9	i	-1
CN(C)c1ccc(-c2nnc(-c3ccc(S(=O)(=O)C(F)F)cc3)o2)cc1
→ -30	98	-0.5	111	1	i	6
CCC(CO)Nc1ncnc2c1cnn2-c1ccc(Cl)cc1 (configuration not stated)
→ /	104	-0.4	/	0.89	i	9
O=C(OCC(=O)N1CCOCC1)c1ccccc1SCC(=O)N1CCCC1
→ /	103	-2.1	/	0.98	i	5
O=C(C1=C[C@H](c2ccc(C(F)(F)F)cc2)C[C@H](OCc2ccc(CO)cc2)O1)N1CCOCC1
→ /	97	/	/	0.98	i	10
CCOC(=O)c1sc(-c2ccccn2)nc1C
→ 56	107	/	135	0.89	i	-2
COC(=O)c1cc(NS(=O)(=O)c2ccc(NC(C)=O)cc2)ccc1Cl
→ /	108	/	/	1.1	i	/
O=c1c(Cc2ccc(F)cc2)c(O)ccn1Cc1ccco1
→ 10	101	/	101	1.1	i	2
CC(=O)c1c(N2CCCCC2)nc(=O)n(-c2ccccc2)c1C
→ -29	112	-4.1	112	1	i	2
Cc1ccc(C(C)C)c(OCc2ccc(C(=O)N/N=C/c3ccc(O)cc3O)cc2)c1
→ /	14	2.6	/	0.95	i	-8
COc1ccc(CNc2ncnc3cc(OC)c(OC)cc23)cc1OC
→ /	110	/	/	1	i	-1
CCOCCCNC(=O)c1ccccc1SCC
→ 44	106	-1.4	168	1	i	-8
O=C(Cn1cnc2ccccc2c1=O)N1CCN(c2ccccc2)CC1
→ 6	/	-2.1	125	0.93	i	2
C/C(=N/NC(=O)c1cc(O)c(O)c(O)c1)c1ccc([N+](=O)[O-])cc1
→ 9	-2.4*	/	118	0.93	i	0
COc1ccc2c(c1)-c1nc(NC(=O)c3ccco3)sc1CC2
→ 14	158	-0.7	103	0.98	i	6
COC(=O)c1ccc(NC(=O)Nc2ccc(F)cc2F)cc1
→ /	104	/	/	0.94	i	2
O=C(C(c1ccccc1)N1CCOCC1)N1CCOCC1 (configuration not stated)
→ 4	100	0.2	117	0.91	i	-6
CSCCC(NC(=O)COc1cccc2ccccc12)C(=O)O (configuration not stated)
→ /	105	/	/	1	i	/
CCOc1ccccc1OCC(=O)Nc1nnc(COC)s1
→ 9	96	-0.3	135	0.75	i	-3
Nc1nc2ccccc2n1C(=O)c1ccco1
→ /	108	-1.8	/	1	i	-11
Cc1cc(=O)n2nc(N3CCC(C(=O)NCc4cccnc4)CC3)sc2n1
→ -19	99	-2.0	120	/	/	-13
CC(C)(C)C(=O)Nc1ccccc1C(=O)Nc1cc(Cl)ccc1Cl
→ -34	102	-0.7	67	0.84	i	2
NC(=O)NC(=O)COC(=O)c1cccc(S(=O)(=O)N2CCCCCC2)c1
→ /	95	/	/	0.99	i	/
CCOC(=O)c1c(NC(=O)CCc2ccc(CC)o2)sc(C)c1C
→ -26	91	-2.4	84	0.96	i	10
CCN(CC)CCNC(=S)N1CCn2c(nc3ccccc32)C1
→ -38	94	0.1	108	/	/	2
O=C(O)CN(C1CCCCC1)S(=O)(=O)c1ccc(F)cc1
→ /	102	/	/	1.1	i	-3
Nc1cc(N)nc(SCC(=O)Nc2ccccc2N2CCOCC2)n1
→ /	99	/	/	0.93	i	/
Cc1cccc(/C=N\NC(=O)c2ccccc2-n2cccc2)c1
→ 21	97	/	52	1	i	-4
CCC1c2ccc(C)n2CCN1C(=O)Nc1ccccc1C(=O)OC (configuration not stated)
→ -296	111	-3.2	31	1.1	i	-11
CC(C)CN(CCCNC(=O)CN1C(=O)COc2ccc(S(=O)(=O)N3CCCC3)cc21)CC(C)C
→ -12	101	/	108	1.1	i	-5
CCOC(=O)CCCCC(=O)c1[nH]c(=O)[nH]c1CSc1nc(-c2ccccc2)c(C#N)c(=O)[nH]1
→ 44	103	0.6	73	0.7	i	6
O=C(Nc1cccnc1Cl)c1cc([N+](=O)[O-])ccc1Cl
→ 36	101	/	113	0.67	i	-3
COc1ccc(NC(=O)C2CCC(C)(C(=O)O)C2(C)C)cc1 (configuration not stated)
→ -21	103	-0.6	123	0.93	i	-3
CCOC(=O)C1/C(=N\O)CC(C)(O)C(C(=O)OCC)C1c1ccc(OC)c(OC)c1 (configuration not stated)
→ /	109	-1.6	/	0.97	i	-19
COc1ccc(-c2nnc(SCC(=O)OC3CCCCC3)o2)cc1OC
→ /	101	-0.2	/	0.9	i	-1
Cc1c(-n2c(-c3ccccc3Cl)n[nH]c2=S)c(=O)n(-c2ccccc2)n1C
→ /	97	/	/	0.92	i	-2
Cc1ccccc1C(=O)N1CCC(C(=O)Nc2ccc3c(c2)OCCO3)CC1
→ 18	107	0.1	71	1	i	4
COC(=O)NC(NS(=O)(=O)c1ccccc1)(C(=O)OC)C(F)(F)F (configuration not stated)
→ /	106	/	/	1.1	i	/
Cc1cccc(C(=O)Nc2ccccc2SCC2CSc3nc4ccccc4c(=O)n32)c1 (configuration not stated)
→ 0	103	-0.3	91	/	/	-6
CCS(=O)(=O)N1CCN(c2ccc([N+](=O)[O-])c(N3CCOCC3)c2)CC1
→ 39	76	0.4	101	1	i	-14
O=C(Cn1nnc(-c2ccccc2)n1)NCc1ccc2c(c1)OCO2
→ /	96	0.6	/	0.98	i	-8

Compound profiles, as listed above:
NC(=O)NC(=O)COC(=O)c1cccc(S(=O)(=O)N2CCCCCC2)c1 is entered as Insulin prom inh: /; RGS16-Gao HTS: 95; GALR2 agonist: /; Insulin prom inh cell count: /; HSV augment primary fold: 0.99; HSV augment: i; PKD1 inh: /
CCC1c2ccc(C)n2CCN1C(=O)Nc1ccccc1C(=O)OC (configuration not stated) is entered as Insulin prom inh: -296; RGS16-Gao HTS: 111; GALR2 agonist: -3.2; Insulin prom inh cell count: 31; HSV augment primary fold: 1.1; HSV augment: i; PKD1 inh: -11

Next section:
Under each structure – Insulin prom inh	RGS16-Gao HTS	GALR2 agonist	Insulin prom inh cell count	HSV augment primary fold	HSV augment	PKD1 inh
Cc1c(Cl)c([N+](=O)[O-])nn1CCCC(=O)NCCc1ccccc1
→ -109	119	/	122	0.99	i	2
COC(=O)C1=C(C)NC(=O)C1(Nc1nccs1)C(F)(F)F (configuration not stated)
→ -263	100	-3.3	77	0.94	i	2
COc1ccc(C2=NCCc3cc(OC)c(OC)cc32)cc1
→ 40	180	-2.0	87	1	i	8
N/C(=N\OC(=O)COc1ccc2ccccc2c1Br)c1cccnc1
→ /	101	/	/	0.97	i	0
O=C(CN1C(=O)NC2(CCCC2)C1=O)Nc1ccccc1F
→ -11	100	-1.3	83	0.97	i	5
Cc1nc(Cl)c2oc3ccccc3c2n1
→ 42	277	-0.7	113	0.9	i	-5
Cc1ccccc1-n1c(C)nnc1SCC(=O)NCC1CCCO1 (configuration not stated)
→ 16	94	-2.5	100	0.81	i	-3
Cc1nn2c(N3CCCC3)cc(C(C)C)nc2c1-c1ccccc1
→ /	100	-1.3	/	1	i	-8
Cc1cc2ccccc2n1CCNC(=O)c1ccc(Br)o1
→ /	98	/	/	1	i	5
COc1ccc(CNC(=O)c2cc(C)nn2-c2ccccc2)cc1
→ /	99	/	/	0.93	i	/
CCOc1cccc(NC(=O)CC#N)c1
→ -210	99	-2.3	59	1	i	-4
C=CCC(CC=C)(NC(=O)c1ccccc1C)c1ccccc1
→ -5	100	-1.2	104	1	i	-6
CCOC(=O)N1CCC(N2Cc3cccc(C(=O)NCc4ccc(C)cc4)c3C2=O)CC1
→ /	103	-0.9	/	0.96	i	-9
Clc1ccc(Cc2nnc(-c3ccccc3Br)o2)cc1
→ -20	107	0.0	115	1.1	i	-1
CNC(=O)NC(=O)C(C)OC(=O)c1ccc(Cl)c(S(=O)(=O)Nc2ccc(F)cc2)c1 (configuration not stated)
→ /	101	/	/	0.9	i	/
CC1CCCC(NC(=O)CNCc2ccccc2F)C1C (configuration not stated)
→ /	92	/	/	0.89	i	0
Cc1ccc(NC(=O)C2OCCc3ccccc32)cc1C (configuration not stated)
→ 56	103	/	137	1.1	i	5
N#Cc1ccc(Sc2nc3ccccc3[nH]2)cc1C#N
→ /	66	-2.2	/	0.83	i	20
O=C(O)c1cn[nH]c1-c1cccc([N+](=O)[O-])c1
→ /	102	/	/	0.94	i	-4
COc1ccc(/C=c2\sc3nc(=O)c(C)nn3c2=O)c(OC)c1
→ /	100	/	/	0.97	i	0

Structures above that bear a hit mark in RGS16-Gao HTS.
smiles,RGS16-Gao HTS,GALR2 agonist,HSV augment primary fold,HSV augment,PKD1 inh
C/C(=N/NC(=O)c1cc(O)c(O)c(O)c1)c1ccc([N+](=O)[O-])cc1,-2.4*,/,0.93,i,0

More entries follow:
Under each structure – Insulin prom inh	RGS16-Gao HTS	GALR2 agonist	Insulin prom inh cell count	HSV augment primary fold	HSV augment	PKD1 inh
Cc1ccc(OCCOc2cccc3ccc(C)nc23)c([N+](=O)[O-])c1
→ /	100	/	/	1	i	5
Cc1ccc(N/C=C2\C(=O)C3(C)CCC2C3(C)C)cc1C (configuration not stated)
→ 33	104	/	90	0.61	i	-4
Cc1ccc(C(=O)N/N=C/c2cc(C)n(-c3ccc(Br)cc3)c2C)cc1[N+](=O)[O-]
→ /	98	-3.0	/	0.96	i	-8
COc1ccccc1NNC(=O)C(O)(c1ccccc1)c1ccccc1
→ /	97	/	/	0.76	i	/
CC1(C)CC(=O)C2=C(C1)NC1=C(C(=O)c3ccccc31)C2c1cccnc1 (configuration not stated)
→ 26	107	/	23	1.1	i	2
CCCOc1ccc(N2C(=O)CC(N(Cc3ccco3)C(=O)CCC(=O)O)C2=O)cc1 (configuration not stated)
→ /	100	/	/	1.2	i	/
O=C(CN1CCOCC1)N1CCCc2c1c(=O)oc1ccc(OCc3ccccc3)cc21
→ -22	92	-1.9	118	0.71	i	9
O=C(CN1C(=O)/C(=C/c2c(F)cccc2Cl)Oc2ccccc21)NCc1ccco1
→ 31	101	/	74	/	/	-3
Cc1cc(C)cc(C(=O)NC(=S)Nc2ccc3[nH]c(=O)[nH]c3c2)c1
→ 22	105	1.1	81	1	i	21
Cc1cccc(C(=O)Nc2ccc(O)c3c(=O)cc(-c4ccccc4Cl)oc23)c1
→ -9	110	-1.2	78	0.91	i	-1
O=C(NCCc1ccccc1)C(=O)NCC1CCCO1 (configuration not stated)
→ /	105	-0.6	/	0.98	i	-2
